Sfp PPTase inh – inhibitors of Bacillus subtilis Sfp phosphopantetheinyl transferase; Biochemical Sfp PPTase activity, qHTS; Potency, µM, for the others: max response, negative = inhibition, actives largely listed as inhibitors; 310,000 tested, 3.5% active; active means well fitted inhibition curve with a large enough effect; inconclusive means small, poorly fitted or top-dose-only effect, or another doubt; inactive means no such curve, though single readings can be large or run the other way;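 further: the enzyme is Sfp with the accession as filed and its product quenches rhodamine fluorescence; potency means the concentration at half of the fitted maximal effect; 0% = enzyme reaction without inhibitor and -100% = no enzyme wells; top concentration of the series not given in the record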
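With Hepes-Na pH 7.6 buffer containing 10 mM MgCl2, Sfp (15 nM) modified BHQ-2-YbbR (12.5 uM) using rhodamine-CoA (5 uM). Two reads 30 minutes apart at 525/598 nm yielded each well's rate.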
gsp antag – antagonizes gsp, the McCune-Albright syndrome mutation; AID 624288; Potency, µM (doses to about 76.9 µM), for the others: at the top dose activity change, negative = inhibition, actives largely listed as inhibitors; gsp-mutant cells, cAMP HTRF, 30 min; control for the full effect not named in the record; 340,000 tested, 0.4% active; active = falling curve of any shape with a large fitted effect; inconclusive = falling curve, mostly with a smaller effect; inactive = flat or rising curve; cell line not stated here;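 further: intracellular cAMP measured with PDE inhibitor Ro 20-1724 present during compound exposure; potency means the concentration at half of the fitted maximal effect; on the % scale 0 is the no-effect control and ±100 the full control effect; nearly all actives have a fitted effect of over 65% in size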
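Cells, 2000/well, grown 16–24 h in DMEM 10% FBS with 0.5 mg/ml G418, then compounds plus […] (300 uM addition stock), 30 min at 37C. cAMP read by HTRF (cAMP-d2 and anti-cAMP antibody-K in lysis buffer) after 30 min RT.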
TRPV1 potentiator – enhances activation of the human vanilloid receptor TRPV1; TRPV1-expressing cells, Fluo-8 calcium influx, capsaicin EC20 potentiation; host cell line not named in the record; control for the full effect not named in the record; Q8NER1; potentiation, % at 8.33 µM; 320,000 tested, 0.02% active; active means potentiation above 80%; inconclusive means 30% to 80%; inactive means below 30%; further: 0% is about no effect
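Fluo-8 calcium influx in TRPV1-expressing cells, kinetic read (ex 480/em 520 nm). Compound added and read 3 min for agonist activity, followed by capsaicin at EC20 final and 2 min further read for enhancement.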
ClpP mod – qHTS Assay for Activators of ClpP; AID 651965, 2013; purified B. subtilis ClpP, FRET peptide cleavage, 20 min; ATP-dependent Clp protease proteolytic subunit (Bacillus subtilis (strain 168)), P80244; Potency, µM (titrated, usually from 57.5 µM), for inactives: top-dose activity change, negative = active; 340,000 tested, 1.9% active; active = well fitted falling curve with a large enough effect; inconclusive = small, poorly fitted or top-dose-only effect; inactive = no such curve, though single readings can be large or run the other way; further: potency means the concentration at half of the fitted maximal effect; the source files actives as falling curves though it sought activators and does not explain the sign; nearly all actives have a fitted effect of over 65% in size; many hits overshoot -100%
Target sequence (P80244 whole entry, looked up): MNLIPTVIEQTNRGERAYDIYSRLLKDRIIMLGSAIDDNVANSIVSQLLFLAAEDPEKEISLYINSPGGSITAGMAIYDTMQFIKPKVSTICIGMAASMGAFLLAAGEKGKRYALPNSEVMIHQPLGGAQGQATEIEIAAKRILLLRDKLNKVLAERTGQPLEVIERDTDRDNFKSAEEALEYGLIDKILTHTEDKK
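FRET quenching reversal measured ClpP activation: 10 microg/mL B. subtilis ClpP at pH 8 with the FRET-FV decapeptide, read at 430 nm after 320 nm excitation. The 20-min minus 0-min signal was scaled between DMSO/no-enzyme wells and ADEP (5.8 microM final).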
Menin MLL FP FL – inhibitors of human menin-MLL interaction, wild-type MLL peptide | Fluorescence polarization, fluorescein-MLL peptide displacement from menin | FP activity change, % at 61.4 µM | 290,000 tested, under 10 active | AID 1766; inconclusive = falling polarisation curve, or a change in total fluorescence; inactive = total fluorescence flat and polarisation flat or rising; no compound was filed as active; the % refers to the polarisation; negative = inhibition;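 further: % of control where 0% means no effect; inhibitors lower the polarisation; unlabelled MLL peptide was the positive control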
D2 potentiator – positive allosteric modulators of human D2 dopamine receptor. P14416. DiscoveRx D2 beta-arrestin cells, luminescence, 90 min; 100% = 57 uM dopamine signal. potentiation, % (concentration not given with the values). 360,000 tested, 0.23% active. AID 624464; active = potentiation of 50% or more; inconclusive = 30% to 50%; inactive = 30% or less;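 further: compound concentration not given in the record; tested on top of an EC20 dose of dopamine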
Target sequence (P14416 whole entry, looked up): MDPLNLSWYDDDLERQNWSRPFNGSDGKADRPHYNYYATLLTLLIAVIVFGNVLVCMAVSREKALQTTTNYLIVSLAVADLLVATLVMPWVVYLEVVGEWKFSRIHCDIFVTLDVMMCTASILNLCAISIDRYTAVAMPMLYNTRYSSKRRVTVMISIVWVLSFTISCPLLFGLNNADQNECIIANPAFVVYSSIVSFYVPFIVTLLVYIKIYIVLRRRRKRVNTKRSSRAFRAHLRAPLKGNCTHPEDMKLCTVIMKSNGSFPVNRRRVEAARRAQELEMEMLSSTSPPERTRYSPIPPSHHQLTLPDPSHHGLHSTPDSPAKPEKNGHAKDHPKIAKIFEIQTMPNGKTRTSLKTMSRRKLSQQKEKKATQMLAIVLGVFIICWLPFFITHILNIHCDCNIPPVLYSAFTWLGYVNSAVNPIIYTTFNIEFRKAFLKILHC
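PathHunter beta-arrestin assay in DiscoveRx D2 cells. Compounds were added with an EC20 of dopamine (50 nM final) for 90 min at 37 deg C. Luminescence was read 1 h after detection reagent, with 57 uM dopamine as the EC100 control.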
gsp ag – agonists of gsp mutant (McCune-Albright syndrome); gsp mutant cells, cAMP HTRF, 30 min; control for the full effect not named in the record; Potency, µM (highest dose often 76.9 µM), without a hit: top-dose activation (cAMP increase), hits mostly activators; 340,000 tested, 0.13% active; AID 624287; active = well fitted activation curve with a large enough effect; inconclusive = small, poorly fitted or top-dose-only effect, or another doubt; inactive = no such curve, though single readings can be large or run the other way; cell line not stated here;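 further: phosphodiesterase inhibitor Ro 20-1724 added with compounds to block cAMP breakdown; potency means the concentration at half of the fitted maximal effect; nearly all actives have a fitted effect of over 60% in size; about a fifth of the inactives were tested at one dose only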
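Cells stably selected in G418 were plated at 2000/well, grown 16-24 hr, then given compounds in DMSO with the PDE inhibitor […] (300 uM solution added) for 30 min at 37C; cAMP was read by HTRF.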
Active calls of the source: *; ? = inconclusive; . = no result given; & = joins results of further samples; [ ] = another dose, or the depositor's remark. Outcome played no part in choosing rows; 5.1% or so of the library scored in one or more.

SMILES	Sfp PPTase inh	gsp antag	TRPV1 potentiator	ClpP mod	Menin MLL FP FL	D2 potentiator	gsp ag
Cn1c(=O)n(C)c2cc(NC(=O)CCc3ccccc3)c(Br)cc21	?	1%	15	1.0%	-2.0	1	-27%
O=c1c(-c2ccnn2-c2cccc(Cl)c2)cnc2n1CCS2	4%	-15%	2	-5.8%	3.9	-20	-15%
Nn1c(SCc2ccccc2F)nnc1-c1ccccn1	16%	-1%	-5	-1.8%	4.7	0	-5%[15.4 µM]
O=C(NC(=O)c1ccccc1F)Nc1nc(-c2cccs2)cc(C(F)(F)F)n1	-4%	-15%	-28	5.2%	-0.1	-4	9%
OC1(C#CCCN2CCCCC2)c2ccccc2-c2ccccc21	13%	-1%	0	-0.3%	-0.3	-6	22%[15.4 µM]
N#CC1=C2SCN(c3ccc(F)cc3)CN2C(=O)CC1c1cccc(F)c1 (stereo unspecified)	1.4µM*	-14%	-17	-3.0%	?	-4	10%
CN(c1ccccc1)S(=O)(=O)c1ccc(Cl)c(C(=O)OCC(=O)NC2CCS(=O)(=O)C2)c1 (stereo unspecified)	19%	13%	11	.	1.9	4	-12%[15.4 µM]
COc1ccc([C@H]2CC(=O)C=C(c3ccc4c(c3)OCCO4)C2)cc1	.	-17%	0	-4.2%	.	1	10%
Cn1c(SCC(=O)N/N=C/C=C\c2ccco2)nc2ccccc21	-65%	-7%	7	0.1%	?	-19	-7%
O=C(NCc1ccco1)c1ccc(Cl)s1	15%	-2%	-9	.	-0.2	-1	-21%
Cc1cc(C(=O)N2CCN(Cc3ccccc3)CC2)on1	12%	8%	-10	-1.5%	3.4	-1	-29%
CCCN1C(=O)c2ccccc2NC1c1ccc(OC)cc1O (stereo unspecified)	7%	-1%	-2	?	-0.3	-9	24%
CCCCCn1c(=O)[nH]c2cc(C(=O)N3CCN(Cc4ccc5c(c4)OCO5)CC3)ccc2c1=O	7%	?	12	-5.3%	0.1	-9	?
O=c1[nH]c(/C=C/c2ccccc2Cl)nc2ccccc12	-2%	-4%	5	4.0%	2.6	-5	2%
COc1cc(C2NC(=S)NC(C)=C2C(=O)OC(C)C)ccc1OC(C)C (stereo unspecified)	11%	-5%	10	0.3%	1.8	-1	-18%
Cc1ccc(NS(=O)(=O)c2ccc(C(=O)NCC3CCCO3)cc2)cc1 (stereo unspecified)	18%	.	25	.	0.0	-2	-8%[15.4 µM]
CC(=O)Nc1ccc(NC(=O)CSc2nnc(C3CC3)n2C)cc1	5%	11%	-12	1.4%	-0.6	-6	10%
Cc1cc(C)c(NC(=O)CS(=O)CC(=O)Nc2ccc(-n3cnnn3)c(C)c2)c(C)c1 (stereo unspecified)	2%	-13%	12	.	-0.1	-4	-7%[15.4 µM]
O=C(N/N=C/c1cc(Br)cs1)c1ccc2c(c1)OCCO2	1%	-5%	.	.	-0.1	-15	3%[15.4 µM]
COc1cc(OC)cc(C(=O)NC2CCN(Cc3nnnn3Cc3cccs3)CC2)c1	16%	-9%	25	-3.5%	4.7	1	0%
CCCCn1c(N)c(N(CCC(C)C)C(=O)CSc2nc3ccccc3s2)c(=O)[nH]c1=O	.	.	.	-1.5%	.	-7	-25%
Cc1cc(C(=O)N/N=C2\CCCC(C)C2)n[nH]1 (stereo unspecified)	-16%	0%	-11	2.2%	-1.0	-14	?
Cc1ccc(-n2ncc3c(=O)n(CC(=O)N(C)C)cnc32)cc1	8%	9%	17	-9.8%	5.2	10	-10%
CC(C)(C)C(=O)NCc1ccc(C(=O)CSc2nnc3n2CCCCC3)s1	.	.	.	0.9%	.	-8	-36%

Printed as active in Sfp PPTase inh (from the list above):
SMILES | Sfp PPTase inh | gsp antag | Menin MLL FP FL | D2 potentiator | gsp ag
N#CC1=C2SCN(c3ccc(F)cc3)CN2C(=O)CC1c1cccc(F)c1 (stereo unspecified) | 1.4µM* | -14% | ? | -4 | 10%

(continued)
SMILES	Sfp PPTase inh	gsp antag	TRPV1 potentiator	ClpP mod	Menin MLL FP FL	D2 potentiator	gsp ag
Cc1ccccc1C(=O)Nc1ccnn1C1CCN(Cc2ccncc2)CC1	10%	10%	-6	-0.4%	.	3	-63%[inhibitor]
NC(=O)CC(NC(=O)c1ccccc1)c1ccc(NCCCN2CCCC2=O)c([N+](=O)[O-])c1 (stereo unspecified)	-13%	2%	4	2.1%	-2.7	-8	.
N#Cc1c([N+](=O)[O-])cc([N+](=O)[O-])cc1S(=O)(=O)Cc1ccccc1	.	?	6	0.5%	.	8	16%
CCc1nnc(NC(=O)CCC(=O)N2CCN(S(=O)(=O)c3ccc(OC)cc3)CC2)s1	22%	-5%	8	-0.5%	0.1	-1	3%
CCOC(=O)CNC(=O)N1CCCC(N(C)CCc2ccccc2)C1 (stereo unspecified)	8%	10%	-4	.	2.5	-18	-8%
O=S1(=O)CCOCCCN1Cc1ccccc1	14%	-3%	-10	-2.7%&3.8%	-4.9	-12	9%
COc1ccc(Cl)cc1S(=O)(=O)n1ccnc1	4%	4%	8	0.1%	-0.9	-1	13%[15.4 µM]
Cc1ccc(NC(=O)c2ccc(S(=O)(=O)N3CCC(C)CC3)cc2)cc1	14%	0%	2	3.2%	0.3	-8	-24%
CC(=O)Nc1ccc2nc(-c3ccco3)[nH]c2c1	-1%	8%	3	.	0.0	4	-24%[15.4 µM]
CCCCn1c(N)c(NCc2ccccc2)c(=O)[nH]c1=O	-23%	5%	-4	-29%	-26	-6	-43%[inhibitor]
Cc1ccc(-n2nc(C)c3c2OC(N)=C(C#N)C3c2ccc(C)o2)cc1 (stereo unspecified)	?	-6%	4	-1.9%	15	-9	8%
COc1ccc(-c2cn[nH]c2N)cc1OC	-2%	-5%	5	-6.2%	-1.1	0	-30%
COC(=O)c1cc2oc(C)cc2n1CC(=O)Nc1ccc(OC)c(OC)c1OC	8%	.	3	.	4.4	.	.
CCn1ccnc1CN(C)C(=O)c1cc(COc2c(F)cccc2F)on1	3%	2%	6	-1.5%	1.2	-3	6%
O=C(CC1C(=O)N(c2ccc(Cl)cc2)C(=S)N1CCc1ccncc1)Nc1ccc(F)cc1 (stereo unspecified)	10%	-30%	-5	1.0%	5.0	-11	1%
COc1ccc(C)cc1NC(=O)NNC(=O)C(C)Oc1ccc(F)cc1Cl (stereo unspecified)	10%	-11%	-4	-2.2%	.	-10	?
CSCC[C@H](NC(=O)[C@H](Cc1ccccc1)n1c(=O)[nH]c2ccccc2c1=O)C(=O)NCC1CCC(C(=O)O)CC1 (stereo partly specified)	11%	8%	-14	-26%	0.2	22	.
CN(C)S(=O)(=O)n1cnc(C(CCO)c2ncn(S(=O)(=O)N(C)C)c2CCCO)c1 (stereo unspecified)	.	10%	11	1.2%	.	-3	1%
CCCS(=O)(=O)N1CCCC(C(=O)N2CCN(c3ccccc3)CC2)C1 (stereo unspecified)	8%	0%	2	-0.1%	1.0	14	-18%
Cc1ccc(C(=O)CSc2nnc(COc3ccc(C#N)cc3)n2-c2ccccc2)cc1	14%	2%	29	3.3%	0.1	-14	9%
Cn1c(SCC(=O)O)nnc1C1CCCCC1	16%	-1%	7	0.7%	2.2	-2	-43%[inhibitor]
COc1ccc(OC)c(NC(=O)CCn2ccnc2)c1	12%	3%	2	.	1.8	-3	-3%[15.4 µM]
O=C(COc1cc2oc(=O)c3c(c2cc1Cl)CCC3)NCC1CCC(C(=O)O)CC1 (stereo unspecified)	6%	-3%	-3	-17%	4.1	-19	1%
O=C(c1cccc(Cl)c1)N1CCN(S(=O)(=O)c2ccc(Cl)s2)CC1	.	3%	3	1.2%	.	1	-82%[inhibitor]
CCc1nc(SCC(=O)Nc2ccccc2C(=O)OC)n[nH]1	4%	11%	1	-15%	2.0	5	-2%
Cc1cc(NS(=O)(=O)Cc2ccccc2)cc(C)c1OCC(=O)N1CCOCC1	1%	1%	-2	-0.3%	1.3	14	?
CC1(C)C(=O)N(c2ccccc2)C1c1ccccc1O (stereo unspecified)	-6%	8%	4	.	-1.8	3	3%[15.4 µM]
COc1ccc(NC(=O)CSc2cc(C)nc3c(-c4ccccc4)cnn23)cc1	-15%	-8%	-8	.	-1.8	12	?
COc1ccc(N2CCC(CNC(=S)Nc3cc(C)cc(C)c3)C2)cc1 (stereo unspecified)	2%	-4%	-9	.	-0.2	-7	-2%[15.4 µM]
CCC(=O)OCC(=O)c1c(N)n(Cc2ccccc2)c(=O)n(C)c1=O	-19%	-2%	0	-4.4%	14	1	0%
Cc1ccc(C)c(S(=O)(=O)N/N=C/c2ccc(N(C)C)cc2)c1	-5%	-19%	8	.	-3.7	-3	-3%[15.4 µM]
CCOc1ccc(CN2CCN(Cc3cnn(CC)c3C)CC2CCO)cc1 (stereo unspecified)	-9%	3%	-8	-1.8%	3.3	-4	-15%
O=C(CN1C(=O)CCC1=O)Nc1nc(-c2nc3ccccc3s2)cs1	0%	-8%	2	4.6%	-2.4	-1	22%
C=CCOc1ccc(CNC(C)(C)C)cc1OC	2%	2%	12	0.0%	1.8	-14	-1%
Cc1nnc(NC(=O)c2oc3cc(C)c(C)cc3c2C)s1	19%	.	-17	.	-1.7	.	.
COc1ccccc1C(=O)N/C(=C\c1cn(S(=O)(=O)N(C)C)c2ccccc12)C(=O)N1CCCCC1	18%	-15%	-2	0.0%	0.9	-9	?
O=C(c1ccc2c(c1)C(=O)N(c1ccc(Cl)cc1)C2=O)N1CCN(c2ccccn2)CC1	.	8%	.	0.1%	.	-15	0%
Cc1ccc(S(=O)(=O)N[C@@H](Cc2ccccc2)C(=O)N2CCC(C(=O)N[C@@H](CCC(N)=O)C(=O)O)CC2)cc1	4%	10%	1	-5.4%	-5.4	-8	-3%[15.4 µM]
CCC(CO)Oc1cc(NCc2ccccc2OC)c2ncn(C(C)C)c2c1 (stereo unspecified)	.	-3%	.	-9.1%	.	-34	.
Cc1ccc(-n2nc3ccc(N)cc3n2)cc1	-2%	22%	20	13%	1.9	-11	?
CC(C)=C1SC(N2CCN(Cc3ccccc3)CC2)=NC1=O	-9%	-18%	-21	-0.3%	-0.2	-5	15%
O=C(Nc1nccs1)c1cc(-c2ccccc2)nn1-c1ccccc1	-1%	-6%	13	-7.4%	.	0	-6%
